From PubChem BioAssay
Bead autofluor: counter-screen for toxin protease inhibitors: compound fluorescence. fluorescence intensity (no concentration beside the values). hit rate 3.1% among 360,000. compound autofluorescence counterscreen, microsphere flow cytometry; hits give high values. AID 624483;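 active = at least 3 SD above the mean of all compounds, about 16000 in these data; inconclusive = too few beads counted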;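 note: 100 nL of 1 mM stock went into each well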
RN4220 kill: kills Staphylococcus aureus RN4220. S. aureus RN4220 growth, OD600, 16 h. inhibition, % (test concentration not listed). hit rate 0.33% among 330,000. AID 1259311;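 active = z-score of -3 or lower and OD600 up to 0.18 on both plates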;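 note: plate controls were untreated cells for no effect and reference antibiotic for full effect; stock transfer was 100 nL into about 80 µL; one replicate is shown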
Mtb hypoxia inh: Mtb hypoxia fluorescent reporter inhibition; M. tuberculosis hypoxia-regulated fluorescent reporter, fluorescence; fluorescence inhibition, % (no concentration beside the values); hit rate 0.1% among 300,000; AID 1159583;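 active = 35 to 45% if threefold the growth effect, above 45% if 1.5-fold the growth effect; inactive = the rest, general growth blockers included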;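 note: wells of about 50 µL received 100 nL stock; 0% = vehicle wells and 100% = reference inhibitor wells; whole bacteria with a GFP reporter of the hypoxia response; strong numbers were not always called active; many hits fall short of the cut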
PrP UTR inh: inhibition of PrP 5' UTR reporter expression; inhibition, % (no concentration beside the values); AID 488862; cell-based PrP 5' UTR mRNA reporter, plate reader; hit rate 0.35% among 340,000;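 active = every replicate at 50% or more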;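 note: 0 = median of the neutral control wells; tested in H4 reporter cells; numbers are from one replicate; inactives centre near -14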
ugtP null kill: kills S. aureus RN4220 lacking UgtP; S. aureus RN4220 ugtP deletion, OD600 growth, 16 h; some inactives read as strong as hits; growth inhibition, % (test concentration not listed); hit rate 0.54% among 330,000; AID 1259309;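 active = z-score under -3 and OD600 up to 0.15 on both plates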;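 note: plate controls were untreated wells for no effect and antibiotic for full effect; wells of about 80 µL received 100 nL stock; the first replicate is given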
BJeLR lethal: kills HRASV12-expressing BJeLR cells; BJeLR (HRASV12) viability, CellTiter-Glo ATP luminescence, 48 h; reference of the scale not given here; inhibition, % (concentration not given with the values); hit rate 0.17% among 300,000;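 active = replicate mean above 50%; inconclusive = above 50% but judged a plate artefact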;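 note: 50 nL library stock added to about 25 µL; numbers are from one replicate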
Mtb hypoxia inh growth: further read-out of Mtb hypoxia inh, marked with its call; growth inhibition, %; measured here: M. tuberculosis growth (absorbance);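 0% = vehicle and 100% = reference antibiotic; read after six days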
Numbers without * were called inactive; ? = inconclusive; · = not tested or not shown.

Molecule,Bead autofluor,RN4220 kill,Mtb hypoxia inh,Mtb hypoxia inh growth,PrP UTR inh,ugtP null kill,BJeLR lethal
Cc1cc(C)c(NC(=O)CSc2nc(=O)n(CCN3CCOCC3)c3c2CCC3)c(C)c1,?,6.9,6,4,-28,12,5
CCOc1ccc(NC(=O)Nc2ccccc2SC)cc1,5965,·,·,·,-80,·,19
CCc1[nH]nc2c1C(c1ccc(C)o1)C(C#N)=C(N)O2 (stereo unspecified),4095,8.6,2,0,-11,5,11
COc1ccc(NC(=O)NC23CC4(C)CC(C)(CC(C)(C4)C2)C3)cc1OC,2017,5.4,-3,5,-27,-11,0
COc1ccc(NC(=O)c2nnn(CC(=O)Nc3ccc4c(c3)OCO4)c2N)cc1OC,5746,3.4,3,0,7,0,11
COc1ccc(NC(=O)CS(=O)CC(=O)NC2CCCc3ccccc32)cc1 (stereo unspecified),9520,0.2,9,4,-8,0,2
O=C(N/N=C/c1cc2c(c([N+](=O)[O-])c1)OCO2)c1ccncc1,3592,·,·,·,-9,·,7
C[C@]1(C(=O)NCCCNc2ncc(C(F)(F)F)cc2Cl)C=CC(Cc2ccccc2)N1C(=O)c1ccccc1 (stereo partly specified),·,4.7,0,-6,·,0,·
O=C(Nc1nccs1)Oc1ccccc1,20333*,3.4,3,5,-7,1,1
Nn1cnnc1SCC(=O)N(C1CCCCC1)C1CCCCC1,4338,1.3,4,7,-26,-1,-3
COc1cc(S(=O)(=O)N2CCN(c3ccc(F)cc3)CC2)ccc1Cl,3009,-2.7,·,·,-26,1,6
CC(NC(=O)C1CCCC1)C1CC2CCC1C2 (stereo unspecified),2525,2.9,·,·,3,12,-8
CC(C)Sc1nnc(NC(=O)CCc2ccccc2)s1,4033,23,14,2,-23,8,-4
CCC(=NNC(=O)CNC(=O)/C=C/c1ccc(OC)cc1)c1ccccc1,·,7.4,-1,-5,·,8,·
O=C(NCCNC(=O)c1cccc(O)c1)c1cccc(O)c1,3362,-1.5,-4,-2,-12,9,5
COc1ccc(C(=O)/C=C/Nc2ccc(S(=O)(=O)Nc3cc(OC)nc(OC)n3)cc2)c(OC)c1,4567,-6.7,-1,15,15,9,-5
COc1ccc(C2CC(C(F)(F)F)n3ncc(C(=O)NCc4cccnc4)c3N2)cc1OC (stereo unspecified),6554,0.6,4,4,-11,-1,-6
CC(C)(C)C(Cn1cncn1)=NOC(=O)Nc1ccc(Cl)cc1,·,3.2,12,6,·,3,·
COc1ccc(S(=O)(=O)N2CCC(C(=O)NCC3CCCO3)CC2)cc1OC (stereo unspecified),4453,0.7,12,-4,-52,3,10
Cc1ccc(C=NN2CCN(Cc3cccc4ccccc34)CC2)o1,·,-1.6,0,8,·,4,·
C(=NN1CCN(Cc2cccc3ccccc23)CC1)c1ccco1,·,0.8,8,3,·,0,·
O=S(=O)(c1ccc(N2CCCC2)nc1)N1CCOCC1,4353,-2.3,·,·,-24,5,1
CS(=O)(=O)N1CCc2cc(-c3csc(NC(=O)Cc4cccs4)n3)ccc21,11541,9.0,4,2,-7,-10,8
COc1ccc(CCNC(=O)CC2Nc3cc(C)c(C)cc3NC2=O)cc1OC (stereo unspecified),9323,6.4,14,14,-16,-6,2

Profiles, looked up by structure.
Shown for `COc1ccc(C(=O)/C=C/Nc2ccc(S(=O)(=O)Nc3cc(OC)nc(OC)n3)cc2)c(OC)c1` → Bead autofluor = 4567; RN4220 kill = -6.7; Mtb hypoxia inh = -1; Mtb hypoxia inh growth = 15; PrP UTR inh = 15; ugtP null kill = 9; BJeLR lethal = -5
Shown for `COc1ccc(NC(=O)CS(=O)CC(=O)NC2CCCc3ccccc32)cc1` (stereo unspecified) → Bead autofluor = 9520; RN4220 kill = 0.2; Mtb hypoxia inh = 9; Mtb hypoxia inh growth = 4; PrP UTR inh = -8; ugtP null kill = 0; BJeLR lethal = 2
Shown for `O=C(Nc1nccs1)Oc1ccccc1` → Bead autofluor = 20333*; RN4220 kill = 3.4; Mtb hypoxia inh = 3; Mtb hypoxia inh growth = 5; PrP UTR inh = -7; ugtP null kill = 1; BJeLR lethal = 1

(cont.)
Molecule,Bead autofluor,RN4220 kill,Mtb hypoxia inh,Mtb hypoxia inh growth,PrP UTR inh,ugtP null kill,BJeLR lethal
Cc1cc(C(=O)OCC(=O)NC2CC2)ccc1[N+](=O)[O-],3796,5.1,16,0,-16,7,·
CC(=O)C1=C(C)Nc2ncnn2C1c1cccc(OCc2ccccc2)c1 (stereo unspecified),4379,8.5,4,1,10,-5,1
Cn1c(COc2ccccc2)nnc1SCc1nc2ccccc2[nH]1,8994,4.2,2,16,-40,2,16
CCc1cc(=O)oc2cc(OCC(=O)OC)c(Cl)cc12,22235*,2.8,-4,1,10,-1,·
COc1cc(C(=O)N2CCN(c3cccc(C(F)(F)F)c3)CC2)ccc1OCC(=O)N1CCOCC1,3508,0.4,-2,5,-16,4,·
CCNC(=S)NNC(=O)c1ccncc1,6879,3.0,7,9,-19,6,1
Cc1cccc(C)c1NC(=O)CN(C)C(=O)c1cccc(S(=O)(=O)N2CCN(C)CC2)c1,5411,2.3,1,4,-7,4,-12
Cc1csc(NC(C)c2nc3cc(Cl)c(Cl)cc3n2CCCO)n1 (stereo unspecified),2952,·,·,·,-5,·,-3
O=C(c1ccc(-c2cccc(Cl)c2)o1)N1CCN(c2ccc([N+](=O)[O-])cc2)CC1,2526,19,-13,0,-14,1,-5
Cc1cccc(-n2c(C)c(-c3ccccc3)[nH]c2=S)c1,3644,2.2,8,-2,-23,12,-19
O=C1S/C(=C/c2ccccc2F)C(=O)N1CCN=C1NS(=O)(=O)c2ccccc21,2206,1.4,0,8,-11,-1,-11
CN(Cc1ccc(OC(F)F)cc1)C(=O)C1CCN(S(=O)(=O)c2ccc3c(c2)OCCO3)CC1,5423,2.0,4,-1,·,5,·
Fc1ccccc1Cc1noc(CN2CCN(C/C=C/c3ccccc3)CC2)n1,4759,2.2,8,-4,-17,7,17
Cc1cc(-c2csc(Nc3ccccn3)n2)ccc1F,3047,-14,5,0,-78,41,-2
COC(=O)c1cnn(-c2ccc(F)cc2F)c1C=NNC(=S)NC(C)(C)C,·,5.7,1,9,·,20,·
Cc1nonc1C(=O)N/N=C/c1ccc(O)cc1O,4182,·,·,·,-10,·,-1
CC=C(C)C(=O)Nc1cccc(C2=NOC3(C2)CC(C(N)=O)N(C(=O)c2cc([N+](=O)[O-])cc([N+](=O)[O-])c2C)C3)c1 (stereo unspecified),·,3.3,-3,3,·,0,·
CC1CCCN(C(=O)c2ccncc2)C1 (stereo unspecified),4166,3.3,10,9,-4,8,-12
COc1ccc(S(=O)(=O)N2CCCCC2)cc1NC(=O)Cc1ccsc1,3670,-0.7,-5,0,-3,2,·
CN1C(=O)/C(=C/c2ccc(C(=O)Nc3ccc(O)cc3C(=O)O)cc2)SC1=S,4872,-2.5,0,4,-12,4,2
Cn1nc(C(=O)NCc2ccc(F)cc2)c2c1-c1ccccc1S(=O)(=O)C2,4530,5.3,3,-1,-11,15,2
Cc1cc(NC(=O)CSc2nnc(C3COc4ccccc4O3)o2)no1 (stereo unspecified),4876,1.7,·,·,-24,0,-4
CCN(CC(=O)N1CCN(Cc2ccccc2)CC1)S(=O)(=O)c1ccc(F)cc1,6361,1.4,4,7,-15,3,-17
COC(=O)c1ccc(CN2CCCC(CO)(Cc3ccccc3F)C2)cc1 (stereo unspecified),7913,3.2,-5,2,-27,2,-9
Nc1nc(Nc2ccc(Cl)cc2)nc2ccccc12,9385,-13,-9,-10,14,-20,·
COc1ccc(/C(O)=C2/C(=O)C(=O)N(CCCC(=O)O)C2c2ccc(OC)cc2)cc1 (stereo unspecified),2674,-1.0,·,·,-37,2,3
CCC(=O)NC(C)C(c1cccs1)N1CCN(c2ccccc2)CC1 (stereo unspecified),5467,2.9,11,-7,-12,10,-18
COc1ccc(-c2nn(-c3ccccc3C)cc2CNC(C)Cn2cncn2)cc1F (stereo unspecified),3969,1.6,2,7,-27,4,6
NC(=O)C1CCN(C(=O)C2CC(=O)N(c3ccc4c(c3)OCCO4)C2)CC1 (stereo unspecified),5721,0.7,2,11,-10,2,·
CC1N(O)C(c2ccc(Cl)cc2Cl)N(O)C1(C)C (stereo unspecified),3133,·,·,·,-24,·,-1
COc1ccc(C)cc1NC(=O)CN1C(=O)C(=O)N(C2CCCC2)C1=O,6587,1.5,6,-6,-18,2,·
COC(=O)c1c(NC(=O)CSc2nnc(-c3ccco3)n2C)sc(C)c1C,8484,0.7,8,9,-34,0,-4
CC(C)=C1C2CCC1C1C(=O)N(c3nc(-c4ccccc4)c(C)s3)C(=O)C21 (stereo unspecified),2531,8.9,-7,3,-67,24,0
CCC1Oc2ccc(C)cc2N(CC(=O)NCCCN2CCOCC2)C1=O (stereo unspecified),4883,2.0,-3,1,-8,4,5
C=CCOc1cccc(CNc2cccc(C(=O)O)c2)c1,3328,3.1,8,13,-47,2,-5
O=C(NCc1cccnc1)Nc1cccc(Cl)c1,3734,2.5,0,1,-15,8,-8

Some of the entries so far, with values under each structure:
Values run as follows: Bead autofluor	RN4220 kill	Mtb hypoxia inh	Mtb hypoxia inh growth	PrP UTR inh	ugtP null kill	BJeLR lethal
- CCC1Oc2ccc(C)cc2N(CC(=O)NCCCN2CCOCC2)C1=O (stereo unspecified)
  4883	2.0	-3	1	-8	4	5
- CC(C)=C1C2CCC1C1C(=O)N(c3nc(-c4ccccc4)c(C)s3)C(=O)C21 (stereo unspecified)
  2531	8.9	-7	3	-67	24	0
- O=C(NCc1cccnc1)Nc1cccc(Cl)c1
  3734	2.5	0	1	-15	8	-8

Next section.
Molecule,Bead autofluor,RN4220 kill,Mtb hypoxia inh,Mtb hypoxia inh growth,PrP UTR inh,ugtP null kill,BJeLR lethal
CN=CC1=C(O)c2ccccc2C1=O,3983,5.6,8,3,-21,3,-7
CCCCNC(=S)N1CCn2cccc2C1c1ccccc1 (stereo unspecified),4411,5.0,16,3,-28,5,-5
C=C(C)CN1C(=O)C2(OCCO2)c2ccccc21,3704,2.3,-2,-4,4,16,-2
C#CCNC(=O)C1=C[C@@H](c2ccc3c(c2)OCO3)C[C@@H](OCc2ccc(CO)cc2)O1,3543,·,·,·,-10,·,-10
O=C1C=C(c2ccc(-c3ccccc3)c(F)c2)CC(c2ccc3c(c2)OCO3)C1 (stereo unspecified),·,-5.0,3,8,·,3,·
CN(Cc1ccccc1)C(=O)CNC(=O)C12CC3CC(CC(C3)C1)C2,3057,-0.6,-13,-16,-1,3,·

Outcome played no part in choosing rows; 4.1% or so of the library scored in one or more.
